SARS PLpro yeast: blocks SARS-CoV papain-like protease in a yeast assay | hit rate 0.19% among 330,000 | AID 485353 | S. cerevisiae expressing SARS-CoV PLpro, growth rescue; control for the full effect not named in the record | Potency, µM (titrated, usually from 32.9 µM), for the others: at the top dose activity, positive = growth rescue; active means well fitted rising curve with a large enough effect; inconclusive means small, poorly fitted or top-dose-only effect; inactive means no such curve, though single readings can be large or run the other way; note: 0% is about no effect; nearly all actives have a fitted effect of over 55% in size; growth read by luminescence after 48 h
Cruzain inh noDet: inhibitors of Trypanosoma cruzi cruzain without detergent. AID 1476. Potency, µM, for the others: max response, negative = inhibition, most hits filed as inhibitors. hit rate 2.3% among 200,000. purified cruzain, Z-FR-AMC fluorescence, no detergent;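 note: plate controls were enzyme without inhibitor for no effect and buffer without enzyme for full effect; nearly all actives have a fitted effect of over 40% in size; top concentration of the series not given in the record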
Target sequence (P25779 123-467 limits assumed): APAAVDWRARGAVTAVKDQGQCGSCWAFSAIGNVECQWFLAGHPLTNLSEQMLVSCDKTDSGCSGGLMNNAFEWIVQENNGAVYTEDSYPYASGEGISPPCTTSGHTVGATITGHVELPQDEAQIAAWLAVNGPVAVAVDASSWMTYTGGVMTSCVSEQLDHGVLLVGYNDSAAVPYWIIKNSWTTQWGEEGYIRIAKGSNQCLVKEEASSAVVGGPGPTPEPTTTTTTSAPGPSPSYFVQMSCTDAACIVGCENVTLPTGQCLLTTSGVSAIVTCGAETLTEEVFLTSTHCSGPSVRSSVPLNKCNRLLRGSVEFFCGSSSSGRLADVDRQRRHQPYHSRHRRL
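Detergent-free condition (0.00005% Triton X-100) in acetate buffer pH 5.5 with DTT. 1.5 nM enzyme and compound were pre-mixed 15 min, then 2 uM Z-FR-AMC substrate added; reaction progress from fluorescence change between first and third reads (60 s).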
RE007 growth inh: less growth of the S. pombe RE007 Vpr strain; S. pombe RE007 Vpr strain, BacTiter-Glo ATP luminescence, 24 h; control for the full effect not named in the record; Potency, µM (top dose mostly 92.2 µM), for the others: at the highest dose activity change, negative = less growth; hit rate 0.21% among 360,000; AID 651644; active = well fitted falling curve with a large enough effect; inconclusive = small, poorly fitted or top-dose-only effect; inactive = no such curve, though single readings can be large or run the other way;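 note: % is set by controls: 0 for no effect and ±100 for the full control effect; nearly all actives have a fitted effect of over 50% in size; the assay follows cell death caused by Vpr and the record does not say whether a fall means rescue or toxicity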
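Fission yeast RE007 carrying one integrated HIV-1 vpr copy, seeded at OD 0.01 in PMG+AL medium with 23 nL pinned compound. Grown 24 h at 30 degrees; viability read by BacTiter-Glo luminescence after 5 min.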
MARV entry inh: Marburg virus entry inhibition; Potency, µM (titrated, usually from 37.8 µM), for inactives: at the top dose activity change, negative = inhibition, hits mostly inhibitors; Marburg virus pseudotyped entry inhibition, cell reporter; control for the full effect not named in the record; about a third of the inactives were read at about 46 µM; hit rate 1.8% among 300,000; AID 540276; active = well fitted inhibition curve with a large enough effect; inconclusive = small, poorly fitted or top-dose-only effect, or effect the other way; inactive = flat fitted curve, though single readings scatter; tested in HEK293 cells; about a fifth of its hits are not listed in these tables; note: % is set by controls: 0 for no effect and ±100 for the full control effect; luciferase read-out
NS1 inh: blocks influenza NS1 protein function; hit rate 0.4% among 270,000; Potency, µM (titrated, usually from 46.1 µM), without a hit: at the top dose activity, positive = more growth; AID 2326; S. cerevisiae slowed by influenza A NS1, growth recovery by OD600; active means well fitted rising curve with a large enough effect; inconclusive means small, poorly fitted or top-dose-only effect; inactive means no such curve, though single readings can be large or run the other way; note: nearly all actives have a fitted effect of over 50% in size
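Compounds were scored for reversing the slow growth caused by influenza A NS1 in S. cerevisiae, measured by optical density at 600 nm. Assay medium contained 2% galactose at pH 6.0; NS1-free yeast of the same strain were the positive control.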
2A StopGo: FMDV 2A StopGo reporter, luciferase signal; hit rate 1.2% among 410,000; Potency, µM (top dose mostly 57.9 µM), for the others: at the top dose signal change, negative = less light; AID 1159524; human cells with a luciferase reporter of 2A StopGo recoding; control for the full effect not named in the record; active = well fitted falling curve with a large enough effect; inconclusive = small, poorly fitted or top-dose-only effect; inactive = no such curve, though single readings can be large or run the other way; tested in HEK293T cells; note: % is set by controls: 0 for no effect and ±100 for the full control effect; nearly all actives have a fitted effect of over 45% in size; luciferase light after 4 h
LASV entry inh: Lassa virus entry inhibition; Lassa virus pseudotype entry inhibition, cell reporter; control for the full effect not named in the record; Potency, µM (series often up to 37.9 µM), inactives show top-dose activity change, negative = inhibition, usual class: inhibitors; hit rate 1.2% among 300,000; AID 540256; active means well fitted inhibition curve with a large enough effect; inconclusive means small, poorly fitted or top-dose-only effect, or effect the other way; inactive means flat fitted curve, though single readings scatter; tested in HEK293 cells; note: % is set by controls: 0 for no effect and ±100 for the full control effect; nearly all actives have a fitted effect of over 50% in size; luciferase read-out
Cruzain inh Det: inhibitors of Trypanosoma cruzi cruzain with detergent; purified cruzain, Z-FR-AMC fluorescence, 0.01% Triton; Potency, µM, for inactives: max response, negative = inhibition, hits mostly inhibitors; hit rate 0.43% among 200,000; AID 1478;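 note: plate controls were neutral wells for no effect and buffer without enzyme for full effect; nearly all actives have a fitted effect of over 40% in size; top concentration of the series not given in the record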
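Z-FR-AMC hydrolysis (2 uM substrate) by cruzain (1.5 nM) monitored kinetically at ex 360/em 450 nm after 15 min room-temperature compound exposure; 0.01% Triton X-100, pH 5.5, 5 mM DTT.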
The depositor's hits bear a star; ? = inconclusive; / = no result given; & = joins results of further samples; [ ] = remark or other dose. Unless noted, calls come from the whole dose curve; as a rule, active = well fitted curve in the direction sought with a large enough effect; inconclusive = small, poorly fitted or top-dose-only effect, or another doubt; inactive = no such curve, though single readings can be large; an effect the other way counts as inactive or inconclusive. Potency is the fitted concentration of half-maximal effect.

SMILES	SARS PLpro yeast	Cruzain inh noDet	RE007 growth inh	MARV entry inh	NS1 inh	2A StopGo	LASV entry inh	Cruzain inh Det
COc1ccc(S(=O)(=O)Nc2ccc(NC(C)=O)cc2)cc1OC	-1%	-6%	15%	22%	?	/	-11%	-2.6%
CC1Cc2ccccc2N1CC(=O)NCc1ccc2c(c1)OCO2 (stereo unspecified)	?	-4%	4%	?	3%	-9%	-9%	-4.3%
COc1ccc(/C=C2\NC(=S)N(CC3CCCO3)C2=O)c(OC)c1C (stereo unspecified)	11%	-9%	7%	-23%	-6%	/	-9%	-10%
Cn1c(=O)c(C(=O)NCc2ccccc2)c(O)c2ccccc21	-9%	/	-13%	15%	-5%	43%[activator]	11%	/
CCOCc1nnc(NC(=O)C2CCN(C(=O)c3ccco3)CC2)s1	0%	/	5%	5%[46.1 µM]	13%	4%	?	/
NC(=O)CC(NC(=O)c1cccc(Br)c1)c1ccc(N2CCN(c3ccccn3)CC2)c([N+](=O)[O-])c1 (stereo unspecified)	-12%	/	-19%	/	-3%	0%	/	/
CCS(=O)(=O)c1cc([N+](=O)[O-])c(Sc2ccccc2NC(C)=O)s1	3%	/	8%	?	3%	16µM*	?	/
O=C(Cc1coc2ccc3ccccc3c12)NC1CCCc2ccccc21 (stereo unspecified)	?	?	13%	?	2%	14%	?	-4.7%
Cc1ccc(C2(C)NC(=O)N(CC(=O)Nc3c(C)n(C)n(-c4ccccc4)c3=O)C2=O)cc1 (stereo unspecified)	26%	-7%	-5%	?	-4%	-5%	8%	-0.3%
CCN1CCN(C(C(=O)NC2CCCCC2)c2ccc(Cl)cc2)CC1 (stereo unspecified)	2%	4%	-2%	-3%	5%	-21%	-7%	2.3%
CN(C)CCCN(C(=O)c1ccc(S(=O)(=O)N2CCc3ccccc32)cc1)c1nc2ccc(F)cc2s1	5%	/	12%	?	9%	-16%	?	/
Cc1ncc2c(c1OC(=O)c1ccccc1)COC(C)(C)OC2	-2%	5%	-1%	10%	-39%	-14%	-10%	2.4%
O=C(O)c1ccccc1-n1c(-c2ccccc2)cc2c1CCCC2=O	0%	/	-7%	-13%[46.1 µM]	-2%	9%	3%[46.1 µM]	/
CC(NCC1(N2CCOCC2)CCCCC1)C(=O)Nc1ccc(Cl)cc1Cl (stereo unspecified)	-3%	/	3%	0%[46.1 µM]	/	-14%	12%[46.1 µM]	/
CCCC(C)C(=O)NCc1ccc2c(c1)OCO2 (stereo unspecified)	-4%	2%	7%	21%	1%	-6%	2%	3.4%
Cc1ccc(S(=O)(=O)CCC(=O)OCC(=O)NNC(=O)c2ccc([N+](=O)[O-])cc2)cc1	4%	/	-1%	-4%	/	-16%	2%	/
CSc1cccc(NC(=O)CCc2ccccc2)c1	-2%	/	77%	-15%[46.1 µM]	/	34%[activator]	18%	/
CCOc1ccc(NC(=S)N2c3ccccc3CC2C)cc1 (stereo unspecified)	17%	/	-5%	14%[46.1 µM]	/	7%	11%[46.1 µM]	/
Cc1ccc(OCc2nnc(SCC(=O)c3cccs3)n2-c2ccccc2)cc1C	8%	2%	1%	?	7%	-12%	?	-2.0%
Cc1nn(-c2ccccc2)c(C)c1/C=N/NC(=O)CSc1nc2ccccc2c(=O)n1-c1ccc(Br)cc1	0%	16µM*	-15%	?	-1%	-7%	-25%	2.0%
Cc1cc(C)cc(C(=O)Nc2cccc(NC(=O)c3ccco3)c2)c1	-11%	/	-10%	-19%	-43%	-9%	0%	/
O=C(c1ccc(C(F)(F)F)cc1)C1CCCN(C(=O)CN2C(=O)CSC2=O)C1 (stereo unspecified)	0%	/	-16%	?	0%	9%	?	/
CSc1ccc2c(c1)C(N1CCN(C)CC1)Cc1ccccc1S2 (stereo unspecified)	-1%	8%&5%	-6%[18.4 µM]	6.3µM*	-69%&-9%	?	18µM*	-3.4%&1.1%
CC(=O)N1CCc2ccc(NC(=O)c3c(-c4c(Cl)cccc4Cl)noc3C)cc21	2%	/	5%	?	1%	?	-6%	/
O=C(CO/N=C/c1ccc(OC(F)F)cc1)N1CCc2ccccc21	-21%	-21%	5%	?	6%	-24%	1%	-3.0%
Cc1cccc(N=NC(=S)NNc2cccc(C)c2)c1	/	/	-10%	19%	/	44%[activator]	4%	/
N#Cc1ccccc1NC(=O)COC(=O)c1ccc(S(=O)(=O)N2CCCC2)cc1	17%	4%	2%	-14%	-1%	15%	-6%	1.5%
O=C(CN1CCN(c2ccccc2F)CC1)N1N=CCC1c1ccccc1 (stereo unspecified)	14%	-14%	3%	9%	-4%	-8%	?	-1.9%
O=C(CCc1nnc2ccc(N3CCCCC3)nn12)NCC1CCN(Cc2ccc(F)cc2)CC1	0%	/	-1%	?	-8%	17%	-2%[46.1 µM]	/
Cc1ccc(S(=O)(=O)N(CC(=O)NCc2ccncc2)Cc2ccc(F)cc2)cc1	-2%	/	-14%	6%[46.1 µM]	-10%	-16%	-7%	/
CSCCC(NS(=O)(=O)c1ccccc1F)C(=O)OCc1ccccc1Cl (stereo unspecified)	-17%	4%	0%	-10%	-40%	7%	11%	-11%
Cc1ccc(NC(=O)CN(C)C(=O)CCC(=O)N2CCOCC2)cc1	-7%	/	-11%	-9%	/	-7%	-5%	/
CCN(CC)CCNC1=CC(=O)OC12CCCCC2	9%	-13%	4%	0%	1%	0%	-4%	1.6%
COc1cc(/C=N/Nc2cccc(C)c2)cc(Br)c1O	-4%	/	266%	13%[46.1 µM]	/	21%	0%	/
N#Cc1c(-n2ncnc2-c2cccc(Cl)c2)sc2c1CCCCC2	/	6%	/	/	/	?	?	0.2%
COc1cccc(CNC(=O)C2CCC(CNS(=O)(=O)c3cccc4cccnc34)CC2)c1 (stereo unspecified)	6%	/	17%	/	6%	-4%	/	/
CCOC(=O)Cn1c(-c2ccccc2)ccc(C#N)c1=O	0%	/	-22%	-5%[14.2 µM]	-9%	-1%	-27%	/
CCOc1ccc2nc(SCC(=O)N3c4ccccc4Sc4ccccc43)sc2c1	1%	?	-3%	23%	-1%	-23%	-13%	0.6%
CCC(=O)N1CCc2cc(CNC(=O)c3ccc(F)cc3)ccc21	/	4%	/	/	/	0%	14%[46.1 µM]	0.1%
COc1c(Cl)cc(Cl)cc1C(=O)Nc1ccc(NC(=O)c2cccs2)cc1	-3%	9%	-6%	?	-5%	/	?	-3.8%
CSCCC(NC(=O)C1CCCC1)c1nnc2ccccn12 (stereo unspecified)	?	/	-3%	/	4%	-12%	/	/
O=C1NCC(COc2ccc(Cl)cc2)O1 (stereo unspecified)	0%	/	-9%	0%[46.1 µM]	/	-8%	0%[46.1 µM]	/
O=C(O)c1ccccc1NC(c1ccccc1)c1ccc2cccnc2c1O (stereo unspecified)	/	/	-9%	?	/	?	?	/
C=CCC1(O)C(=O)N2C(=C1C(=O)OCC)c1ccc3ccccc3c1CC2(C)C (stereo unspecified)	-4%	16%	4%	0%	-7%	-25%	/	0.6%
CCOCCCNC(=O)CN1CCN(c2ccc(F)cc2)CC1	-2%	0%	5%	2%	-4%	/	-1%	3.7%
CCOC(=O)N1CCN(Cc2nc(-c3ccc(C)cc3)no2)CC1	0%	8%	1%	2%	-4%	-20%	2%	-1.1%
COc1cc(Cl)c(C)cc1NC(=O)c1cc2c(=O)oc3ccccc3c2s1	/	3%	/	25%[46.1 µM]	/	4%	9%[46.1 µM]	4.7%
COC(=O)Cc1c(C(=O)OC)nnn1-c1ccc(OC(F)(F)F)cc1	4%	/	3%	-13%[46.1 µM]	/	-14%	5%[46.1 µM]	/
COc1ccc(NC(=S)NC(NC(=O)c2cccc3ccccc23)C(Cl)(Cl)Cl)c([N+](=O)[O-])c1 (stereo unspecified)	-2%	-18%	5%	?	5%	/	-14%	-4.1%
COCCN(C(=O)CSc1n[nH]c(-c2ccccc2)n1)c1c(N)n(CC(C)C)c(=O)[nH]c1=O	0%	/	-1%	12%	/	0%	-15%[46.1 µM]	/
Cc1ccc(C(=O)NC(=C(Cl)Cl)S(=O)(=O)c2ccc(C)cc2)cc1	-9%	11%	7%	?	2%	18µM*	?	-2.3%
Cc1nc(NC(=O)c2cc3c(s2)CCCCC3)sc1C(=O)N(C)C	-1%	?	-6%	17%	-67%	58%[activator]	-23%	-10%
Cc1c(NC(=O)c2cc(-c3cccc(O)c3)on2)c(=O)n(-c2ccccc2)n1C	/	-10%	/	?	/	10%	-2%[46.1 µM]	-3.1%
CN1C(=C2C(=O)OC(C)(C)OC2=O)Sc2ccccc21	4%	-6%	2%	26%	-9%	/	-4%	-2.8%
CCN(CCCNC(=O)CCC(=O)N1CCOc2ccccc21)Cc1ccccc1	0%	/	-2%	/	-12%	-19%	/	/
O=C1NC(=O)N(Cc2ccccc2Cl)C(=O)/C1=C/N1CCOCC1	2%	-15%	24%	-3%	2%	14%	-1%	-6.7%
CC(=O)c1ccc(NC(=O)CN2C(=O)CCC2=O)cc1	1%	/	-10%	7%[46.1 µM]	5%	10%	?	/
CCOc1ccc(N=C2NC(=O)C(CC(=O)Nc3ccc(OC)cc3)S2)cc1 (stereo unspecified)	0%	/	3%	/	2%	13%	/	/
O=C(Nc1cccc(F)c1)c1cccnc1	-4%	/	5%	/	-9%	6%	/	/
CCc1ccccc1NC(=O)c1ccc2c(c1)c(C)c(C)n2Cc1ccccc1	/	?	/	/	/	25%	-21%[46.1 µM]	-3.7%
CC(C)C(NS(=O)(=O)c1ccc(Br)s1)C(=O)O (stereo unspecified)	0%	-9%	-1%	-1%[46.1 µM]	9%	-18%	?	-0.3%
CCCC12CN3CN(C1)CC(CCC)(C3)C2O (stereo unspecified)	1%	11%	1%	31%&31%	2%	-21%	8%	0.9%
O=C(O)CNC1=NCCC1	3%	-2%	/	1%	5%	/	/	3.3%

Source: PubChem (National Center for Advancing Translational Sciences (NCATS))
